# VDR inhibitor – blocks the human vitamin D receptor. P11473. VDR-SRC2-3 peptide fluorescence polarization, 2 h. Potency, µM, for the others: max response, negative = inhibition, usual class: inhibitors. 400,000 tested, 0.93% active. AID 504847; active = well fitted inhibition curve with a large enough effect; inconclusive = small, poorly fitted or top-dose-only effect, or another doubt; inactive = no such curve, though single readings can be large or run the other way; note: series mostly up to about 120 µM
# Target sequence (P11473 whole entry, looked up): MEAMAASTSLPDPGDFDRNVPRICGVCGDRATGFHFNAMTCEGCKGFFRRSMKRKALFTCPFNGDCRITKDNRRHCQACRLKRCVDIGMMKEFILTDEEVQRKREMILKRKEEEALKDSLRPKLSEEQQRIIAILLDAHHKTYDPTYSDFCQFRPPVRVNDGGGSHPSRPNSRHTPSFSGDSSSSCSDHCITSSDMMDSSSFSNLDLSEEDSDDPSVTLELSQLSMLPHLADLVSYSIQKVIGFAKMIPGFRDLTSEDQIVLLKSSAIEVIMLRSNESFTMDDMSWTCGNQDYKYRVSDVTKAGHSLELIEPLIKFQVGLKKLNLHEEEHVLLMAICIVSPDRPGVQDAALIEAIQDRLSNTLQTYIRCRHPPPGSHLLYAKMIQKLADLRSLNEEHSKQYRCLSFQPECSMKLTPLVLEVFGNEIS
#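 The screen uses fluorescence polarization to detect compounds that interfere with recruitment of the SRC2-3 coactivator peptide to VDR; plates are read after 2 h at room temperature.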
# * = called active by the depositor; ? = inconclusive. % is set by controls: 0 for no effect and ±100 for the full control effect; potency is the fitted concentration of half-maximal effect. Only part of the results is shown; the hit share may differ from the screen's.
VDR inhibitor | Molecule
5.3% | Cc1cc(=O)n2nc(N3CCCC(C(=O)NC4CCCCC4C)C3)sc2n1 (centres undefined)
-9.9% | CCC(Oc1ccc(C)cc1)C(=O)Nc1ccc(S(=O)(=O)Nc2nccs2)cc1 (centres undefined)
-9.5% | CCCC(=O)C1=C(N2CCCC2)CC(C)(C)C(C(=O)OC)C1=O (centres undefined)
-5.8% | Cc1nn(Cc2c(Cl)cccc2Cl)c(Cl)c1/C=N/NC(=O)c1cccnc1
-5.4% | COc1ccccc1Oc1ccnc2cc(Cl)ccc12
-7.5% | c1ccc(C[C@H]2CN=C(Nc3ccccc3)N2CC2CCCCC2)cc1
13.4% | O=C(/C=C/c1ccccc1)Nc1nc2n(n1)C(c1ccc(Cl)cc1)C=C(c1ccccc1)N2 (centres undefined)
-11.7% | CCCCOC(=O)CSc1nc2c(c(=O)[nH]c(=O)n2C)n1C/C=C(\C)Cl
-0.7% | Cc1ccc2nc(NC(=O)CSCC(=O)OCC(=O)c3ccccc3)sc2c1
15.5% | Cc1ccsc1/C=N/NC(=O)Cc1ccc([N+](=O)[O-])cc1

# Next section:
VDR inhibitor | Molecule
-14.8% | O=[N+]([O-])c1ccc(NCCCO)c(S(=O)(=O)N2CCOCC2)c1
-6.8% | O=C(c1cnn2c(C(F)(F)F)cc(-c3ccc4c(c3)OCO4)nc12)N1CCCCC1
-8.5% | O=C(NCc1ccco1)c1ccc(CS(=O)(=O)Cc2ccc(F)cc2)o1
-10.4% | COc1ccc(CNc2cccnc2)c(OC)c1OC
3.6% | COc1ccc(C(=O)N/C(=C\c2cccc3ccccc23)C(=O)N2CCN(C)CC2)cc1
3.9% | S=C(NCCC(c1ccccc1)c1ccccc1)Nc1ccc(Cl)cc1
-1.1% | CS(=O)(=O)Nc1cccc(-c2cncnc2-n2ccnc2)c1
-10.4% | C=CC[C@@H](Cc1ccc(F)cc1)C(=O)OC[C@@H]1CCCN1C(=O)[C@@H](CC=C)CC(=O)N[C@@H](CO)Cc1ccccc1
-4.8% | Cc1cc(C)cc(NC(=O)c2cc3c(=O)n(Cc4ccco4)ccc3nc2C)c1
-1.7% | Cc1ccc(C)c(NC(=S)N(C)C)c1

# Other results follow:
VDR inhibitor | Molecule
8.8% | Cc1ccc(C)c(-n2nnc(-c3nc(-c4ccc(Cl)cc4)no3)c2N)c1
4.9% | CCc1ccc(-c2nc(CSCC(=O)NC3CC3)c(C)o2)cc1
-6.2% | COc1ccc(OCC(=O)OCc2cc(=O)n3cc(C)sc3n2)cc1
-6.8% | CC(=O)N1CCN(Cc2nc3cc(NC(=O)c4cccs4)ccc3n2C)CC1
-5.2% | Cc1noc(C)c1CSCC(=O)N(C)CC(=O)Nc1cccc(F)c1
-5.4% | CCN(CCCNC(=O)CC(C(=O)N1CCc2ccccc21)n1ccnc1)c1ccccc1 (centres undefined)
-3.5% | COc1ccc(-c2noc(CCCC(=O)NC3CCCC3)n2)cc1
-3.5% | Cn1c(=N)c(S(=O)(=O)c2ccc(F)cc2)cc2c(=O)n3ccccc3nc21
-5.2% | Cn1c(NC(=O)C2CC2)cc(=O)n(C)c1=O
-5.3% | CCC(C)NC(=O)Cn1c(=O)n(-c2ccc(C)cc2)c(=O)c2ccccc21 (centres undefined)

# The list goes on:
VDR inhibitor | Molecule
-2.8% | CC(=O)Nc1ccc(/C=C(\C#N)C(N)=O)cc1
-0.2% | N=c1n(Cc2ccccc2)c2ccccc2n1CC(O)c1ccccc1 (centres undefined)
4.9% | CCOC(=O)/C=C/c1cnn(-c2ccccc2)c1
-5.0% | COc1ccccc1NC(=O)COc1coc(CN2CCN(c3ccccc3)CC2)cc1=O
9.6% | CSc1n[nH]c(N)c1S(=O)(=O)c1ccc(Cl)cc1
-27.4% | CSC1=NCCN1CCOc1ccccc1
-20.7% | O=C(O)CC1(CC(=O)Nc2ccc(Cl)cc2C(=O)c2ccccc2)CCCC1
-12.5% | O=C(Nc1ccc2c(c1)CCC2)c1cccc(S(=O)(=O)Nc2ccccc2Cl)c1
-17.1% | Cc1ccc(NC(=O)/C(=C/C=C/c2ccccc2)NC(=O)c2ccccc2)cc1
-8.9% | O=C1NC(=O)c2cc(Br)cc3cccc1c23

# The list continues.
VDR inhibitor | Molecule
-5.1% | CCN(CC)c1ccc2cc(C(N)=O)/c(=N\NC(=O)c3ccncc3)oc2c1
-14.4% | Cc1ccc(C(=O)Nc2ccc3c(c2)CCC3)cc1
-17.5% | Cc1ccc(NC(=O)C2CCN(S(=O)(=O)c3cccc(C(F)(F)F)c3)CC2)nc1
13.8% | O=C(NCCc1ccccc1)c1ncn[nH]1
0.4% | Cc1c(Cl)cnc(NC(=O)COC(=O)c2cccc(S(=O)(=O)N3c4ccccc4CC3C)c2)c1Cl (centres undefined)
-26.7% | COCCNC(=O)c1onc(CSc2ccccc2C)c1C(=O)O
5.5% | Cc1ccnc(NC(=O)CC(NC(=O)c2ccccc2Cl)c2ccccc2)c1 (centres undefined)
-11.1% | CCCCC(CC)CNC(=O)C(=O)C1C(=O)Nc2ccccc21 (centres undefined)
4.7% | COc1ccc(/C=N\NC(=O)c2ccccc2Br)cc1COc1ccccc1
4.1% | CC1CCN(S(=O)(=O)c2cccc(C(=O)N3CCN(c4ccc(F)cc4)CC3)c2)CC1

# Next records follow:
VDR inhibitor | Molecule
-4.4% | COc1ccc(C2(O)CCN(CC(=O)Nc3nccs3)CC2)c(OC)c1
11.8% | C=C1CCC[C@]2(C)C[C@H]3OC(=O)C(CNC(C)CC)[C@H]3CC12 (some centres undefined)
-18.6% | CCn1c(CNC(=O)c2ccc(OC)cc2)nnc1SCC(=O)Nc1ccc(F)cc1
-23.4% | COc1ccc(NC(=O)CSc2nnc(NC(=O)c3ccco3)s2)cc1
10.5% | O=C(NCCCN1CCCC1=O)Nc1ccc(Cl)cc1
-4.4% | COc1ccc(S(=O)(=O)N2CC(C(=O)O)Oc3ccc(CC(=O)O)cc32)cc1 (centres undefined)
? | Cc1cc(C(=O)CN2C(=O)NC3(CCCCC3)C2=O)c(C)n1-c1ccc2c(c1)OCO2
2.8% | O=C(c1oc(=O)c2ccccc2c1-c1ccccc1)N1CCOCC1
-7.6% | O=C(Cc1ccccc1)Nc1ccccc1Sc1ccccc1
9.0% | Nc1nnnn1/N=C/c1ccccc1O

# Next results follow:
VDR inhibitor | Molecule
-2.6% | COc1cccc(C2/C(=C(/O)c3ccc(C)cc3)C(=O)C(=O)N2Cc2ccco2)c1 (centres undefined)
2.1% | CCCC(C(=O)Nc1nccs1)c1ccccc1 (centres undefined)
13.4% | O=C(NC1CCN(C(=O)Nc2ccccc2Cl)CC1)c1cccc(F)c1
21.8% | COc1cc(/C=C/c2nc3ccccc3c(=O)[nH]2)cc(OC)c1OC
-18.5% | COc1ccc(S(=O)(=O)NCC2CCC(C(=O)O)CC2)cc1 (centres undefined)
-24.8% | O=[N+]([O-])c1c(NCCCO)cc(SCc2ccco2)c2nonc12
-10.1% | CC(=O)c1cccc(NC(=O)CCc2nnc3ccc(N4CCOCC4)nn23)c1
-4.0% | COc1ccc(C(=O)NCc2nnc(SCC(=O)N3CCCCC3)o2)cc1OC
-10.1% | CC1CCCN(c2sc(S(C)(=O)=O)nc2S(=O)(=O)c2ccc(Cl)cc2)C1 (centres undefined)
79.4µM* | COc1ccc(OCc2nnc(SCC(=O)N(C)Cc3ccccc3)n2N)cc1

# (list continues)
VDR inhibitor | Molecule
7.1% | COC(=O)c1nnn(CC(=O)Nc2c(C)cccc2C)c1N
? | COC(=O)CCC(=O)OC1(C)C(=O)C=C2C=C(C3CC3)N(Cc3ccco3)C=C2C1=O (centres undefined)
-5.4% | O=C(NN1CCOCC1)c1ccccc1NS(=O)(=O)c1ccc(F)cc1F
-19.9% | C=CCCC(=O)N1CCCC(C(=O)c2cccc(OC)c2)C1 (centres undefined)
-5.6% | O=C(Cn1ccc2ccccc2c1=O)NCCC(=O)N1CCN(C2CCCCC2)CC1
-20.6% | CC1(C)c2ccccc2N2CC(=O)N(CC(N)=O)C21C (centres undefined)
6.9% | CC(C)c1ccc(S(=O)(=O)N2CCN(C(=O)n3ccnc3)CC2)cc1
2.3% | Nc1nonc1C(=O)NCCNC(=O)c1ccc(Cl)c(Cl)c1
1.6% | CCN(c1ccccc1)S(=O)(=O)c1cc(C(=O)Nc2cccc(Cl)c2)ccc1F
-12.8% | CC(NC(=S)Nc1ccc(S(N)(=O)=O)cc1)c1ccc2c(c1)OCO2 (centres undefined)

# Reformatted with tabs: entries from further up
smiles	VDR inhibitor
COC(=O)c1nnn(CC(=O)Nc2c(C)cccc2C)c1N	7.1%
COC(=O)CCC(=O)OC1(C)C(=O)C=C2C=C(C3CC3)N(Cc3ccco3)C=C2C1=O (centres undefined)	?
CC(C)c1ccc(S(=O)(=O)N2CCN(C(=O)n3ccnc3)CC2)cc1	6.9%
CC1(C)c2ccccc2N2CC(=O)N(CC(N)=O)C21C (centres undefined)	-20.6%

# The list goes on.
VDR inhibitor | Molecule
-7.9% | Cc1cc(C)n(C(=O)c2nn(C)c(C)c2[N+](=O)[O-])n1
? | Cc1cnc(NC(=O)CSc2nnc(C)n2N)s1
-5.7% | Cn1c(COc2ccc(F)cc2)nc2ccccc21
-3.2% | Nc1nc(Br)c2c(F)cccc2c1-c1ccccc1
-11.4% | CN(NS(=O)(=O)c1ccc(Cl)cc1)c1cnn(C)c(=O)c1Cl
-0.1% | CCN(CC)CCN(Cc1cc2cc(C)ccc2[nH]c1=O)C(=S)Nc1ccccc1
6.0% | FC(F)(F)c1nc2ccccc2nc1N/N=C/c1ccc(Cl)cc1
-7.4% | O=C1CC(C(=O)N(c2ccccc2)C(C(=O)NC2CCCC2)c2ccncc2)CS1 (centres undefined)
-12.5% | C[C@H](CO)N1C[C@H](C)[C@@H](CN(C)S(=O)(=O)c2cccs2)Oc2ccc(NS(=O)(=O)c3ccccc3)cc2C1=O
2.4% | COc1cc2c(c(OC)c1OC)-c1c(cc3c(c1OC)OCO3)CC(C)C(C)C2 (centres undefined)

# A second format for some results above:
> CSC1=NCCN1CCOc1ccccc1
  VDR inhibitor: -27.4%
> O=C(O)CC1(CC(=O)Nc2ccc(Cl)cc2C(=O)c2ccccc2)CCCC1
  VDR inhibitor: -20.7%
> O=C(Nc1ccc2c(c1)CCC2)c1cccc(S(=O)(=O)Nc2ccccc2Cl)c1
  VDR inhibitor: -12.5%

# (cont.)
VDR inhibitor | Molecule
9.2% | O=C1C(C=NCc2ccccn2)=C(O)c2ccccc21
13.3% | CCc1ccc(N(CC(=O)NCc2cccnc2)S(=O)(=O)c2ccccc2)cc1
2.9% | COC(=O)c1ccccc1NC(=O)Nc1ccc2c(c1)OCO2
-4.4% | COc1cc(C)c(C(N)=O)c(OC)n1
12.3% | Cc1onc(-c2ccccc2Cl)c1C(=O)Nc1ccc(-c2nnc3n2CCCCC3)cc1
? | O=C(Nc1ccccc1)C1CCN(C(=O)c2ccccc2)CC1
-9.7% | O=C(Nc1ccccc1Cc1ccccc1)c1ccccc1NS(=O)(=O)c1ccc(Cl)s1
18.7% | CCOC(=O)c1ccccc1NC(=O)c1cc2ccc3cccnc3c2[nH]1
-4.3% | O=C(NC1CCN(C(=O)NCc2ccccc2)CC1)c1cccc(F)c1
-19.0% | CCOc1ccc(NC(=O)c2c(OC)cccc2OC)cc1

# (listing goes on)
VDR inhibitor | Molecule
-6.1% | CC(C)(C)NC(=O)CSc1nc(O)cc(=O)n1-c1ccccc1
-12.0% | Cc1ccccc1NC(=O)COC(=O)c1cc(S(=O)(=O)N2CCOCC2)ccc1C
-16.5% | NC(=O)CC(NC(=O)Cc1ccc(Br)cc1)c1ccc(NCCc2ccc(Cl)cc2)c([N+](=O)[O-])c1 (centres undefined)
-2.4% | O=C(Oc1coc(CSc2ncccn2)cc1=O)c1ccc(Br)o1
-0.2% | CCCCS(=O)(=O)Nc1ccc2ncn(C)c(=O)c2c1
10.9% | Nc1n[nH]c(-c2ccccc2)c1-c1ccccc1
-1.9% | CCO[C@H]1OC(C(=O)NC2CC2)=C[C@@H](C2CC2)[C@@H]1CCCO
6.3% | CC(NC(=O)CSCc1ccc(Br)cc1)c1ccccc1 (centres undefined)
4.3% | CN(C)C(CNc1nnnn1-c1ccccc1)c1ccco1 (centres undefined)
-7.0% | COc1cccc(NC(=O)CN(C)C(=O)c2cc(CN3C(=O)c4ccccc4C3=O)ccc2OC)c1

# The results go on:
VDR inhibitor | Molecule
13.9% | CCOC(=O)C(C(=O)OCC)N(C#N)c1nc(C)cc(C)n1
23.5% | CCOC(=O)N/N=C(\C)c1ccc(Oc2ncccn2)cc1
4.8% | COc1cc(NC(=O)CSc2nnc3c4ccccc4n(C)c3n2)cc(OC)c1OC
-8.4% | Cn1cnnc1SCC(=O)NCCc1ccc(Cl)cc1Cl
-2.9% | CCOc1ccc(/C=N/Nc2nncc(-c3ccccc3)n2)cc1OC
2.0% | O=C1CC(N2CCN(c3ccc(F)cc3)CC2)C(=O)N1c1ccc2c(c1)OCO2 (centres undefined)
-2.9% | Cc1ccc(NC(=O)C2CCC(CNS(=O)(=O)c3cccc4nsnc34)CC2)c(Cl)c1 (centres undefined)
-11.2% | CCN(CC)S(=O)(=O)c1ccc(N2CCCC2)c(NC(=O)Cc2cc(OC)c(OC)c(OC)c2)c1
6.3% | COc1cccc(CSc2nc3ccccc3cc2C=O)c1
-1.4% | C=CCSC1=C(C#N)C(c2ccccc2C)CC(=O)N1 (centres undefined)

# Going on with the list.
VDR inhibitor | Molecule
-15.1% | Cc1ccc(C)c(NC(=O)COC(=O)Cc2ccsc2)c1
-10.5% | CC1CCN(C(=O)CCNC(=O)Cn2cnc3sc4c(c3c2=O)CCCC4)CC1
-6.5% | C/C(=N\NC(=O)c1ccccc1F)c1ccc(C#N)cc1
-9.5% | O=C1CC(c2ccccc2)CC(O)=C1C=Nc1cccc(Cl)c1 (centres undefined)
-23.7% | CN(C)CCNC(=O)/C(=C/c1ccc(-c2cccc(Cl)c2)o1)NC(=O)c1ccccc1
10.6% | Cc1ccc(Cc2c(C)nc3nc(SCC(=O)NCCCN4CCOCC4)nn3c2C)cc1
-7.3% | O=[N+]([O-])c1ccc(Sc2ncccn2)c([N+](=O)[O-])c1
-8.9% | Cc1nnc(SC(C)C(=O)Nc2nccs2)s1 (centres undefined)

# Assay outcomes from PubChem BioAssay.
